Assay outcomes deposited in PubChem by several laboratories.
Proteasome disasm = blocks ATP-dependent breakdown of the yeast 26S proteasome | anti-FLAG beads, GFP-proteasome disassembly, flow cytometry | inhibition of disassembly, % (test concentration not listed) | 24,000 compounds, 0.2% hits | AID 751;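 active = above 40%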;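 also: plate controls were ATP control with full disassembly for no effect and ATP-gamma-S intact proteasomes for full effect; higher percent means more bead fluorescence retained so stronger block of disassembly; stock transfer was 100 nL into about 10 µL; wells with too few beads may also be inconclusive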
VCAM-1 rise = boosters of cytokine-driven VCAM-1 levels – cell-based, plate reader, pooled HUVEC, TNFa stimulus (AID 455) | 10,000 compounds, 0.2% hits | HUVEC TNFa-induced VCAM-1 immunofluorescence, plate reader; numbers were filed only for top-ranked candidate wells | augmentation, % at 5 µM;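 active = a compound raising TNF-alpha-driven VCAM-1 surface staining, with its hit status upheld on visual or statistical review; inactive = the rest, including hits rejected on review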;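 also: 0% = TNFa with vehicle and 100% = strongest image-checked hit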
Active calls of the source: *; i = inactive; nt = not tested or not shown. This is a subset (hit frequency here may not be typical).

SMILES | Proteasome disasm | VCAM-1 rise
CC1(C)NC(=O)N(CN2C(=O)NC(C)(C)C2=O)C1=O | -0.3 | i
O=C(c1ccc(Cn2cc(Cl)cn2)o1)N1CCN(Cc2ccc3c(c2)OCO3)CC1 | -0.5 | nt
Cc1cccn2c(=O)c3cc(C(=O)NCCCn4ccnc4)n(C)c3nc12 | -1.5 | nt
O=C(CSc1nnc(Cc2cc(=O)[nH]c(=O)[nH]2)n1-c1ccccc1)NCC1CCCO1 (stereo not given) | 0.4 | i
CCCSCCCNC(=O)c1cc2c(s1)CS(=O)(=O)C2 | 0.3 | nt
CCOC(=O)COc1ccc(C2NC(C(=O)O)CS2)cc1 (stereo not given) | 0.3 | i
CCC(=O)N(CCCN(C)C)c1nc(-c2cc(OC)ccc2OC)cs1 | -0.1 | i
COc1cc(C(=O)Nc2nc(-c3cccs3)cs2)cc(OC)c1OC | 0.1 | i
CC(C)c1cc(C(=O)NCc2cccnc2)no1 | -2.7 | nt
COCCNC(=O)Cn1c(=O)n(CCC(=O)NCCc2ccccc2)c(=O)c2ccccc21 | 0.7 | nt
CC1(O)CC(=O)N(c2ccccc2)O1 (stereo not given) | -0.1 | nt
Cn1c(=O)[nH]c(=O)c2c1nc(NCCCn1ccnc1)n2Cc1ccccc1 | 1.1 | i
COc1cccc(CN2CCN(CC(=O)Nc3ccccc3Cl)CC2)c1 | 0.0 | nt
CCN(CC)CCNC(=O)CS(=O)Cc1nc(-c2ccccc2Cl)oc1C (stereo not given) | 0.8 | nt
CCOC(=O)c1ccc(NC(=O)CSc2nnc(CNC(=O)c3c(F)cccc3Cl)o2)cc1 | -1.0 | nt
CCOC(=O)c1ccc(-c2n[nH]c(=O)c3ccccc23)cc1 | -1.1 | nt
COc1ccc(C(F)(F)F)cc1NC(=O)c1nc2nc(C)cc(C(F)F)n2n1 | 1.0 | i
COC(=O)CSc1ccc2nnc(-c3ccc(F)cc3)n2n1 | 0.0 | nt
N#CCSc1nc(N)c(C#N)c(C2CCCCC2)c1C#N | 0.9 | nt
O=C(NCc1ccco1)c1cc(-c2cccnc2)nc2ccccc12 | 1.9 | nt
CCCCOC(=O)Nc1nc2ccc(OC)cc2s1 | 0.0 | i
CCOCCCNC(=O)C1CCN(C(=O)N(C)C)CC1 | -0.5 | nt
O=C(CCCn1c(=O)[nH]c2ccsc2c1=O)N1CCN(Cc2ccc3c(c2)OCO3)CC1 | -2.1 | nt
Cc1ccc(NC(=O)C2CCCN2S(=O)(=O)c2cccc3cccnc23)cc1F (stereo not given) | 0.3 | i
COc1cc(C(=O)NCC(=O)OCC(=O)c2ccc[nH]2)cc(OC)c1OC | 1.8 | i

Single records, as listed above.
Cc1ccc(NC(=O)C2CCCN2S(=O)(=O)c2cccc3cccnc23)cc1F (stereo not given) is listed with Proteasome disasm = 0.3; VCAM-1 rise = i
CCOCCCNC(=O)C1CCN(C(=O)N(C)C)CC1 is listed with Proteasome disasm = -0.5; VCAM-1 rise = nt
CCC(=O)N(CCCN(C)C)c1nc(-c2cc(OC)ccc2OC)cs1 is listed with Proteasome disasm = -0.1; VCAM-1 rise = i

Next structures follow:
SMILES | Proteasome disasm | VCAM-1 rise
CC(=O)OCC(=O)[C@@]1(OC(C)=O)[C@@H](C)C[C@H]2[C@@H]3C[C@H](F)C4=CC(=O)C=C[C@]4(C)[C@@]3(F)[C@@H](O)C[C@@]21C | -0.1 | i
Cc1nc2c(C(=O)N3CCN(c4ccccn4)CC3)cnn2c(C)c1Cc1cccc(Cl)c1 | 0.9 | nt
CCOC(=O)N1CCN(S(=O)(=O)c2ccc(C(=O)Nc3nc4ccccc4s3)cc2)CC1 | 0.4 | nt
Cc1ccc(S(=O)(=O)N2CCN(C(=O)CN3CCN(C)CC3)C2)cc1 | 0.2 | nt
Cc1cc(NC(=O)NC(=O)c2cccc(OC(F)(F)C(F)F)c2)n[nH]1 | -0.8 | i
COc1ccc(S(=O)(=O)N2Cc3ccccc3CC2C(=O)O)cc1OC (stereo not given) | 2.5 | nt
CCC(=O)Oc1ccc(/C(CC)=C(\CC)c2ccc(OC(=O)CC)cc2)cc1 | -0.7 | i
CCc1nnc2sc(-c3cc(-c4ccccc4)nc4ccccc34)nn12 | 1.4 | 45
Cc1cccc(-c2nc(CS(=O)CC(=O)N3CCc4ccccc4C3)c(C)o2)c1 (stereo not given) | 1.1 | nt
COc1ccc(C2=NOC(C(=O)N3CCOCC3)C2)cc1OC (stereo not given) | -0.8 | nt
Cc1nc2ccccn2c1/C(O)=C1\C(=O)C(=O)N(CCCN(C)C)C1c1ccc(F)cc1 (stereo not given) | -0.4 | i
Cn1cnc2c(N3CCCCC3)nccc21 | 0.4 | i
CCN1CCCC1CNC(=O)c1csc2c1CCCC2 (stereo not given) | 4.0 | nt
CC(=O)N(CCc1ccccc1C)Cc1cc2cc3c(cc2[nH]c1=O)OCO3 | 0.5 | i
O=C(NCc1ccccc1Cl)C1CCN(S(=O)(=O)N2CCC3(CC2)OCCO3)CC1 | -0.1 | nt
CC(=O)N(c1c(C)n(C)n(-c2ccccc2)c1=O)C1(C(=O)NC2CCCC2)CCCCC1 | -0.8 | nt
Cc1ccccc1S(=O)(=O)Cc1ccc(C(=O)NCCN2CCCCC2C)o1 (stereo not given) | -2.9 | nt
CCOC(=O)C1CCN(C(=O)CCc2nc3ccccc3[nH]2)CC1 | 0.1 | nt
CC(=O)N1CCc2cc(Br)cc(S(=O)(=O)NCc3ccccn3)c21 | 1.0 | nt
CCOc1ccccc1NC(=O)CN(c1ccc(C)cc1)S(=O)(=O)c1c(C)n[nH]c1C | -0.2 | nt
Cc1cc(Nc2ccc3c(c2)OCCO3)n2nc(C)nc2n1 | -0.3 | nt
CCc1nnc(NC(=O)CSc2nnc(-c3c[nH]c4ccccc34)n2CCOC)s1 | 0.5 | nt
COc1ccc2c(CC(=O)Nc3ccc(OC)c(NS(=O)(=O)c4ccc(F)cc4)c3)coc2c1 | 1.2 | i
O=C(CN1CCOc2ccccc21)NC1CCCCCCC1 | 0.2 | nt
COC(=O)Nc1ccc(C)cc1NC(=O)OC | -1.3 | i

Three compounds out of the list above, sorted by the number in Proteasome disasm, highest first:
SMILES | Proteasome disasm | VCAM-1 rise
CCN1CCCC1CNC(=O)c1csc2c1CCCC2 (stereo not given) | 4.0 | nt
Cc1nc2ccccn2c1/C(O)=C1\C(=O)C(=O)N(CCCN(C)C)C1c1ccc(F)cc1 (stereo not given) | -0.4 | i
Cc1cc(NC(=O)NC(=O)c2cccc(OC(F)(F)C(F)F)c2)n[nH]1 | -0.8 | i

The list goes on:
SMILES | Proteasome disasm | VCAM-1 rise
c1ccc(N(c2ccccc2)c2nc(-n3ccnc3)nc(-n3ccnc3)n2)cc1 | -0.2 | nt
Cc1ccc(C)c(NC(=O)Cn2nnc(C(=O)Nc3c(C)cccc3C)c2N)c1 | 1.3 | nt
Cn1c(SCC(=O)N2CCOCC2)nnc1-c1cnccn1 | -0.9 | i
CCOC(=O)C1=C(CN2CCOCC2)NC(=O)NC1c1cc(C)ccc1C (stereo not given) | 1.1 | i
CCOc1cc2c(cc1OCC)C(C(=O)O)C(c1cc(Br)c(O)c(OC)c1)N(C)C2=O (stereo not given) | 0.3 | nt
CN(CC(=O)N1CCc2ccccc2C1)S(=O)(=O)c1ccc2c(c1)c(=O)n(C)c(=O)n2C | 0.6 | nt
CCN(CC)C(=O)c1ccc2c(c1)N(Cc1ccccc1)C(=O)CS2=O (stereo not given) | 0.3 | nt
O=C(Nc1cccc(F)c1)C1CCCN1S(=O)(=O)c1cccc2cccnc12 (stereo not given) | 0.3 | nt
COc1ccccc1-c1cc(C(=O)NCc2ccc(Cl)cc2)no1 | 2.1 | nt
O=C(COc1ccc(Cl)cc1Cl)Nc1ccc2nc3n(c(=O)c2c1)CCCC3 | -0.8 | nt
COc1ccc(CN2CC(C(=O)NCCN3CCN(c4ccccc4F)CC3)CC2=O)cc1 (stereo not given) | -0.3 | nt
CCOC(=O)c1cc2c(=O)n3ccccc3nc2n(CC(C)C)c1=NC(=O)c1ccco1 | -0.1 | i
O=C(Nc1ccc(NC(=O)c2ccco2)nc1)c1cccnc1 | 0.3 | i
CN(C)CC(O)COc1ccc(-c2ccc(C#N)cc2)cc1 (stereo not given) | -2.9 | i
CCOc1ccc(C(CC(=O)O)NC(=O)c2ccco2)cc1OC (stereo not given) | 0.6 | i
CCN(CC)c1ccc(-c2c(C#N)c(N)nc(OC)c2C#N)cc1 | 57* | i
Cc1ccc(NC(=O)C2C(=O)N(CCO)C3(C)CC2c2ccccc2O3)cc1 (stereo not given) | 1.9 | nt
COc1ccccc1NC(=O)N(Cc1ccco1)Cc1cc2cccc(C)c2[nH]c1=O | 4.3 | i
CCN1CCN(C(=O)c2oc(=O)c3ccccc3c2-c2ccc(C)cc2)CC1 | 0.8 | i
COC(=O)[C@H](C)NC(=O)Nc1cc(OC)ccc1OC | 3.6 | i
COc1ccc(N2CCN(C(=O)CSc3ncnc4c3cnn4-c3ccccc3C)CC2)cc1 | -0.6 | i
CC(=O)c1ccc(OC(=O)c2cccs2)cc1 | -0.6 | i
c1ccc(-c2nc(Sc3ncnc4c3cnn4-c3ccccc3)n[nH]2)cc1 | 3.7 | nt
C=C(CC)C(=O)c1ccc(OCC(=O)O)c(Cl)c1Cl | -1.2 | i
Cc1nn(-c2ccc(F)cc2)c2sc(C(=O)O)cc12 | -1.0 | i

The list continues.
SMILES | Proteasome disasm | VCAM-1 rise
N#CC1=C(SCc2ccccc2)NC(=O)C(C#N)C12CCCC2 (stereo not given) | 1.2 | i
CCOC(=O)N1CCN(C(=O)c2ccc(CS(=O)(=O)c3ccc(OC)cc3)o2)CC1 | -0.2 | i
O=C(O)c1cccc(NC(=O)C2C3C=CC(C3)C2C(=O)OCC(F)(F)C(F)F)c1 (stereo not given) | -1.1 | i
O=C(Cc1ccc(F)cc1)N(c1ccc(F)cc1)C1C=CS(=O)(=O)C1 (stereo not given) | 1.2 | nt
N#Cc1c(N)nc2c(c1-c1cccc(O)c1)CCCCCC2 | 0.0 | nt
Cc1ccc2nsnc2c1S(=O)(=O)N(Cc1cc2cccc(C)c2[nH]c1=O)CC1CCCO1 (stereo not given) | -1.2 | i
COc1ccc(Cl)cc1NC(=O)CSc1nncn1-c1cccnc1 | -3.8 | i
COc1ccc(N2C(=O)C3CCCN3C2c2ccccc2F)cc1 (stereo not given) | 0.1 | nt
CN(C)c1ccc(NC(=O)c2ccncc2)c2ccccc12 | -26 | i
Cc1nc(N2CCCCC2)c2sc(=S)n(C)c2n1 | -0.3 | nt
O=C(c1cccnc1NCc1ccccc1)N1CCOCC1 | -2.4 | i
O=C(C1CCCN(S(=O)(=O)c2cnc[nH]2)C1)N1CCN(c2ccc(Cl)cc2)CC1 (stereo not given) | -0.8 | i
COc1cccc(N2CCN(C(=O)C3C4C=CC5(CN(Cc6ccccc6Cl)C(=O)C35)O4)CC2)c1 (stereo not given) | 0.8 | i
CCOc1ccc(N(CC(=O)N2CCCC2)S(=O)(=O)c2c(C)noc2C)cc1 | -0.4 | nt
CCCCNC(=O)Cn1cnc2sc(C(=O)OCC)c(C)c2c1=O | -0.7 | nt
CCc1noc(C)c1C(=O)NCCc1ccc(OC)c(OC)c1 | 1.3 | i
O=C1C2C3C=CC(C3)C2C(=O)N1c1ncn[nH]1 (stereo not given) | 2.2 | nt
Cc1ccc(CCNC(=O)CN2C(=O)COc3ccccc32)cc1 | -0.8 | nt
CCOC(=O)c1ccc(NC(=O)c2ccc(NS(C)(=O)=O)cc2)cc1 | -0.4 | i
CCOC(=O)N1CCN(c2ncnc3c2[nH]c2ccc(OC)cc23)CC1 | -1.8 | i
C#CCn1c(=NC(=O)CSCC(=O)N2CCOCC2)sc2ccccc21 | 1.1 | nt
Cc1cc(OCC(=O)N2CCOCC2)cc2oc(=O)c3ccccc3c12 | -0.2 | i
CCN(CC)CCNC(=O)CCCCn1c(=S)[nH]c2c([nH]c3ccc(OC)cc32)c1=O | 2.5 | nt
CCS(=O)(=O)N1CCC(C(=O)NCc2cccs2)CC1 | -0.6 | i
CC1=CCC(C(C)(C)NC(=O)c2ccccc2)C/C1=N\O (stereo not given) | 2.9 | i

The listing continues.
SMILES | Proteasome disasm | VCAM-1 rise
CCOC(=O)c1c(C)c(C(=O)NCCc2ccc(S(N)(=O)=O)cc2)c(C)n1CC | -1.4 | nt
Cc1c(NS(=O)(=O)N2CCCC2)c(=O)n(-c2ccccc2)n1C | -0.5 | nt
Cc1ccc(Cn2ccc(NC(=O)c3cc(-c4ccc5c(c4)OCO5)on3)n2)cc1 | 1.4 | nt
COc1ccccc1CC(NC(C)=O)C(=O)NC1CCN(c2nnnn2-c2ccccc2)CC1 (stereo not given) | -2.5 | i
Cc1nn(C(=O)c2cccs2)c(N)c1-c1ccccc1 | 0.9 | nt
COc1ccccc1-c1cc(C(=O)NCc2cccs2)no1 | 1.8 | nt
COc1ccccc1S(=O)(=O)Cc1ccc(C(=O)NCCN2CCCC2)o1 | 0.7 | nt
CC1(C)N=C(C(=O)c2ccccc2)N(O)C1(C)O (stereo not given) | -0.6 | nt
COc1ccc(CCNC(=O)C2CCN(S(=O)(=O)c3cccc4nsnc34)CC2)cc1OC | 1.3 | nt
CN1CCN(CCCN2c3ccccc3Sc3ccc(C(F)(F)F)cc32)CC1 | 0.7 | i
CCCCCc1c(O)c2ccccc2[nH]c1=O | -2.8 | i
COc1ccc(CCN2CC34C=CC(O3)C(C(=O)NCc3ccccc3)C4C2=O)cc1OC (stereo not given) | -1.4 | nt
COc1ccc(-n2c(Cc3cccn3C)nnc2SCC(=O)Nc2ccccc2C)cc1 | 0.4 | nt
Nc1ccc(-n2c(N)c(C(=O)NCc3ccc4c(c3)OCO4)c3nc4ccccc4nc32)cc1 | 0.8 | i
CCOC(=O)C(CC)n1cnc2c(cnn2-c2ccc(Cl)cc2)c1=O (stereo not given) | -1.1 | nt
